Sa RN4220 lethal: S. aureus RN4220 growth inhibition. OD600, 16 h. inhibition, % (no concentration beside the values). actives 0.33% (n = 330,000). AID 1259311;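 active = z-score of -3 or lower and OD600 up to 0.18 on both plates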;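 also: plate controls were untreated cells for no effect and reference antibiotic for full effect; stock transfer was 100 nL into about 80 µL; one replicate is shown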
Autofluor counter: counter-screen for toxin protease inhibitors: compound fluorescence; actives 3.1% (n = 360,000); compound autofluorescence counterscreen, microsphere flow cytometry; stronger effect = higher value; fluorescence intensity (no concentration beside the values);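 active = at least 3 SD above the mean of all compounds, about 16000 in these data; inconclusive = too few beads counted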;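 also: 100 nL of 1 mM stock went into each well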
Mtb hypoxia rep: Mtb hypoxia fluorescent reporter inhibition | fluorescence inhibition, % (concentration not given with the values) | actives 0.1% (n = 300,000) | AID 1159583 | M. tuberculosis hypoxia-regulated fluorescent reporter, fluorescence;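 active = 35 to 45% if threefold the growth effect, above 45% if 1.5-fold the growth effect; inactive = the rest, general growth blockers included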;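 also: wells of about 50 µL received 100 nL stock; 0% = vehicle wells and 100% = reference inhibitor wells; whole bacteria with a GFP reporter of the hypoxia response; strong numbers were not always called active; many hits fall short of the cut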
Sa ugtP lethal: compounds lethal to S. aureus RN4220 ugtP deletion mutant | growth inhibition, % (concentration not given with the values) | OD600 growth, 16 h; some inactives read as strong as hits | actives 0.54% (n = 330,000) | AID 1259309;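 active = z-score under -3 and OD600 up to 0.15 on both plates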;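 also: plate controls were untreated wells for no effect and antibiotic for full effect; wells of about 80 µL received 100 nL stock; the first replicate is given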
PrP UTR inh: inhibition of PrP 5' UTR reporter expression; cell-based PrP 5' UTR mRNA reporter, plate reader; actives 0.35% (n = 340,000); inhibition, % (no concentration beside the values);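 active = every replicate at 50% or more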;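 also: 0 = median of the neutral control wells; tested in H4 reporter cells; numbers are from one replicate; inactives centre near -14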
BJeLR viability: kills HRASV12-expressing BJeLR cells; BJeLR (HRASV12) viability, CellTiter-Glo ATP luminescence, 48 h; reference of the scale not given here; inhibition, % (concentration not given with the values); actives 0.17% (n = 300,000);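 active = replicate mean above 50%; inconclusive = above 50% but judged a plate artefact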;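 also: 50 nL library stock added to about 25 µL; numbers are from one replicate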
Mtb hypoxia rep growth: also measured in Mtb hypoxia rep; calls as there; growth inhibition, %; measured here: M. tuberculosis growth (absorbance);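 0% = vehicle and 100% = reference antibiotic; read after six days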
Active calls of the source: *; ? = inconclusive; / = not tested or not shown.

Keys: A = Sa RN4220 lethal; B = Autofluor counter; C = Mtb hypoxia rep; D = Mtb hypoxia rep growth; E = Sa ugtP lethal; F = PrP UTR inh; G = BJeLR viability
CCc1cc(=O)oc2cc(C)cc(OCC(=O)NCCCn3ccnc3)c12
  A: -3.4; B: 5780; C: -1; D: 4; E: -1; F: -25; G: 10

O=C(Cc1cccs1)Nc1nc(-c2cccnc2)cs1
  A: 2.4; B: 4688; C: 3; D: -1; E: -1; F: /; G: 2

CCCn1ncc(CN2CCC(CO)(CC3CCCCO3)CC2)c1C (stereo not drawn)
  A: 1.3; B: 4097; C: 5; D: 4; E: 1; F: -48; G: -2

O=[N+]([O-])c1ccc(C=NNC(=S)Nc2ccccc2F)o1
  A: 8.5; B: /; C: 5; D: 14; E: 9; F: /; G: /

CCOC(=O)c1c(NC(=O)CSc2nnc(-c3ccncc3)n2Cc2ccco2)sc(C(C)=O)c1C
  A: 3.3; B: 3193; C: 6; D: 1; E: -4; F: 6; G: /

COc1cc(C(=O)Nc2ccc3c(c2)CCN3C(C)=O)cc(OC)c1OC
  A: 2.4; B: 3830; C: -8; D: 3; E: -3; F: -34; G: 17

CCc1nc(SCC(=O)NCCc2ccccc2)c2oc3ccccc3c2n1
  A: 15; B: 10100; C: 19; D: 0; E: -11; F: -42; G: 2

Cc1noc(C)c1S(=O)(=O)Nc1ccc(C(=O)Nc2ccc(OC(F)(F)F)cc2)cc1
  A: 1.3; B: 5445; C: -4; D: -2; E: -16; F: -14; G: 6

COc1ccc(CN2C(=O)c3ccccc3C2C(=O)NC2CCCC2)c(OC)c1 (stereo not drawn)
  A: 2.6; B: 13077; C: 3; D: -2; E: 14; F: -20; G: 8

O=C(Cn1cnc2c(nnn2-c2ccccc2)c1=O)NCc1ccc(F)cc1
  A: 8.0; B: 4288; C: 0; D: 5; E: -3; F: -10; G: -15

CC(C)CC(CO)N(Cc1ccccc1)S(=O)(=O)N(Cc1ccccc1)C(CO)CC(C)C (stereo not drawn)
  A: -13; B: /; C: 13; D: 7; E: -42; F: /; G: /

O=C(O)c1ccccc1C(=O)OCCCCOC(=O)c1ccccc1C(=O)O
  A: 0.1; B: 6004; C: 0; D: 2; E: -3; F: -19; G: 4

CCOC(=O)c1ccc(-c2ccc3c(=O)c4ccccc4n(C)c3c2)cc1F
  A: 12; B: 3761; C: 3; D: 5; E: 23; F: -16; G: -4

O=C(c1ccc(OC2CCN(C/C=C/c3ccc(F)cc3)CC2)cc1)N1CCCC1
  A: 3.8; B: 4657; C: 9; D: -4; E: 11; F: -15; G: -1

Cc1cc(C(=O)OC(C)C(=O)NC2CCCCC2C)c(C)o1 (stereo not drawn)
  A: 1.7; B: ?; C: 9; D: -2; E: 5; F: -17; G: -15

Cn1cccc1C(=O)C(=O)Nc1ccc(Cl)cc1
  A: 0.9; B: 4854; C: /; D: /; E: 1; F: -73; G: -1

Cc1[nH]nc2c1C(c1ccsc1C)C(C#N)=C(N)O2 (stereo not drawn)
  A: 3.5; B: 12905; C: 14; D: 7; E: -2; F: -35; G: -2

Cc1ccc2c(c1)N(S(=O)(=O)c1ccc(CN3C(=O)c4cccnc4C3=O)cc1)CCO2
  A: 5.3; B: 3883; C: 7; D: 2; E: -2; F: 1; G: 8

Cc1nc2ccc(F)cc2cc1C(=O)Nc1cccc(Cl)c1C
  A: 9.1; B: 2709; C: 7; D: 1; E: 0; F: 1; G: -2

CC1CCCCC1NC(=O)CCNS(=O)(=O)c1cc(Br)cnc1N (stereo not drawn)
  A: 3.8; B: 5733; C: -3; D: 2; E: 3; F: 1; G: -4

O=C(NC1CC1)C1CCN(C(=O)c2ccc(Cl)cc2)CC1
  A: 3.5; B: 3857; C: 12; D: -3; E: -4; F: -14; G: 1

O=C(N=C1SC2CS(=O)(=O)CC2N1c1ccc(Br)cc1Cl)C1CC1 (stereo not drawn)
  A: 1.8; B: 5190; C: 3; D: 8; E: 4; F: -15; G: 5

CN(C)Cc1nc2ccccc2c(=O)n1Cc1nc(-c2cc3ccccc3o2)cs1
  A: 0.8; B: 3165; C: 8; D: 8; E: -9; F: -11; G: -8

CN(C)N1C(N)=C(C#N)C(c2ccc(F)cc2)C2=C1CC(C)(C)CC2=O (stereo not drawn)
  A: -2.1; B: 3783; C: 2; D: 2; E: 7; F: 19; G: 3

CC1=CC(C)(C)N(C(=O)c2ccccc2)c2ccccc21
  A: 6.5; B: 23091*; C: 3; D: 16; E: 3; F: -17; G: 0

O=C(CSc1ccccn1)c1ccc(F)cc1
  A: 12; B: 9724; C: 17; D: 7; E: 4; F: -57; G: -15

COC(=O)CSc1nc2ccc(C)cc2cc1C#N
  A: 8.0; B: 4268; C: 9; D: -3; E: 15; F: -46; G: -3

CCOC(=O)c1ccc2c(c1)NCc1cccc(OC)c1O2
  A: /; B: 3951; C: /; D: /; E: /; F: -63; G: 6

CC(C)C(NC(=O)c1ccccc1)C(=O)N1CCc2ccccc21 (stereo not drawn)
  A: 1.3; B: /; C: 3; D: 14; E: -1; F: /; G: /

Cc1ccc(/C=N/NC(=O)Cn2nc(C)c([N+](=O)[O-])c2C)o1
  A: /; B: 6427; C: /; D: /; E: /; F: -24; G: -3

COc1cc(CN2CCCC(C(=O)c3ccccc3SC)C2)cc(OC)c1 (stereo not drawn)
  A: 1.9; B: 2699; C: 4; D: 1; E: 3; F: -10; G: -3

NCCOc1ccccc1OCCN
  A: -1.3; B: 3167; C: 14; D: 2; E: 1; F: -11; G: -13

CCc1ccc(OCc2nc(-c3ccccn3)no2)c(Br)c1
  A: 17; B: 8368; C: 7; D: 9; E: 24; F: -56; G: -5

CC(=O)N(/N=C1\Sc2ccccc2C1=O)c1ccc(C)cc1C
  A: /; B: 2458; C: /; D: /; E: /; F: 58*; G: -12

COC(=O)Cc1ccc(NC(=S)NCc2ccc(OC)cc2)cc1
  A: 2.1; B: 4789; C: 2; D: 0; E: 2; F: -31; G: 8

Cc1ccc(CN2CC(C(=O)N3CCN(S(=O)(=O)c4ccc(C(C)C)cc4)CC3)CC2=O)cc1 (stereo not drawn)
  A: 2.4; B: 5245; C: 0; D: -4; E: 0; F: -19; G: -6

Cc1cc(=O)[nH]c(Nc2ccc(N(C)C)cc2)n1
  A: 2.9; B: 4097; C: 10; D: 7; E: 3; F: -6; G: 6

Cc1ccsc1C=Nn1c(-c2ccco2)n[nH]c1=S
  A: 26; B: /; C: 15; D: 5; E: -10; F: /; G: /

Cc1ccc(S(=O)(=O)NCCC(=O)Nc2cc(S(=O)(=O)N(C)C)ccc2C)cc1C
  A: 5.9; B: 5347; C: 9; D: 14; E: 13; F: -17; G: -2

Cc1cccc(S(=O)(=O)Nc2cccc3c2C(=O)c2ccccc2-3)c1
  A: 4.8; B: 4359; C: 5; D: 19; E: -25; F: -8; G: 1

Complete entries, quoted from the list. Order of values: Sa RN4220 lethal	Autofluor counter	Mtb hypoxia rep	Mtb hypoxia rep growth	Sa ugtP lethal	PrP UTR inh	BJeLR viability
CC(=O)N(/N=C1\Sc2ccccc2C1=O)c1ccc(C)cc1C as listed: /	2458	/	/	/	58*	-12
NCCOc1ccccc1OCCN as listed: -1.3	3167	14	2	1	-11	-13
Cc1ccc(CN2CC(C(=O)N3CCN(S(=O)(=O)c4ccc(C(C)C)cc4)CC3)CC2=O)cc1 (stereo not drawn) as listed: 2.4	5245	0	-4	0	-19	-6
Cc1cc(=O)[nH]c(Nc2ccc(N(C)C)cc2)n1 as listed: 2.9	4097	10	7	3	-6	6
COc1cc(CN2CCCC(C(=O)c3ccccc3SC)C2)cc(OC)c1 (stereo not drawn) as listed: 1.9	2699	4	1	3	-10	-3

New compounds follow:
Keys: A = Sa RN4220 lethal; B = Autofluor counter; C = Mtb hypoxia rep; D = Mtb hypoxia rep growth; E = Sa ugtP lethal; F = PrP UTR inh; G = BJeLR viability
COc1ccc(C(=O)Nc2ccccc2C(=O)N/N=C/c2ccccc2OC)cc1
  A: /; B: 3359; C: /; D: /; E: /; F: -17; G: 2

Cc1c(N2C(=O)/C(=C3/C(=O)N(C)c4ccccc43)SC2=S)c(=O)n(-c2ccccc2)n1C
  A: 0.3; B: 8444; C: 2; D: 9; E: -7; F: /; G: -4

CCc1nnc(NC(=O)CSc2nc(C)cc(C)c2C#N)s1
  A: /; B: 4476; C: /; D: /; E: /; F: -47; G: 6

O=C(CCS(=O)(=O)c1ccccc1)Nc1nc(-c2cccs2)cs1
  A: 1.7; B: 5458; C: 3; D: 6; E: 6; F: 7; G: -3

Cn1c(=O)c2c(ncn2CC(=O)Nc2ccc(N3CCOCC3)cc2)n(C)c1=O
  A: 1.2; B: 3142; C: 6; D: 0; E: -4; F: -19; G: -18

CN1C[C@@H]2C(c3ccccc3)C3(c4ccccc4)CC2(C3)[C@H]1c1ccccc1 (stereo partly drawn)
  A: /; B: 4466; C: /; D: /; E: /; F: -22; G: -2

O=C(c1ccccc1[N+](=O)[O-])N1CCN(c2ccc(N3CCOCC3)nn2)CC1
  A: 3.0; B: ?; C: -9; D: -3; E: 2; F: 4; G: -3

O=C(N/N=C/c1ccccc1O)c1ccncc1
  A: /; B: 5121; C: /; D: /; E: /; F: -6; G: 4

Cc1cc(N2CCOCC2)nc2ccc(NC(=S)N3CCCCC3C)cc12 (stereo not drawn)
  A: 3.1; B: 2050; C: 9; D: 4; E: -6; F: -24; G: 1

COc1ccc(Nc2nc(N3CCCC3)nc(N3CCCC3)n2)c(OC)c1
  A: 2.8; B: 20538*; C: -2; D: 2; E: -5; F: -10; G: -1

For convenience, some entries already given.
Keys: A = Sa RN4220 lethal; B = Autofluor counter; C = Mtb hypoxia rep; D = Mtb hypoxia rep growth; E = Sa ugtP lethal; F = PrP UTR inh; G = BJeLR viability
COc1ccc(C(=O)Nc2ccccc2C(=O)N/N=C/c2ccccc2OC)cc1
  A: /; B: 3359; C: /; D: /; E: /; F: -17; G: 2

Cc1c(N2C(=O)/C(=C3/C(=O)N(C)c4ccccc43)SC2=S)c(=O)n(-c2ccccc2)n1C
  A: 0.3; B: 8444; C: 2; D: 9; E: -7; F: /; G: -4

CCc1nnc(NC(=O)CSc2nc(C)cc(C)c2C#N)s1
  A: /; B: 4476; C: /; D: /; E: /; F: -47; G: 6

O=C(CCS(=O)(=O)c1ccccc1)Nc1nc(-c2cccs2)cs1
  A: 1.7; B: 5458; C: 3; D: 6; E: 6; F: 7; G: -3

New compounds follow:
Keys: A = Sa RN4220 lethal; B = Autofluor counter; C = Mtb hypoxia rep; D = Mtb hypoxia rep growth; E = Sa ugtP lethal; F = PrP UTR inh; G = BJeLR viability
Cc1ccc(OCc2ccc(C(=O)N3CCCC3)o2)cc1C
  A: 7.1; B: 5634; C: 10; D: 9; E: 3; F: -26; G: -3

O=C(COC(=O)CCOc1ccccc1)NCCc1ccccc1
  A: 2.2; B: 5525; C: 3; D: 12; E: 10; F: -13; G: 12

CN(C(=S)NC(=O)c1ccc(F)cc1)C1CCCCC1
  A: 0.6; B: /; C: 8; D: 1; E: 6; F: -24; G: -8

Cc1ccc(C(c2nnnn2C(C)(C)C)N(Cc2ccco2)Cc2cccs2)cc1 (stereo not drawn)
  A: -12; B: 2965; C: -3; D: 13; E: 21; F: -36; G: 2

C=CCOc1ccc(C=NNC(=O)C(=O)Nc2ccccn2)cc1OC
  A: 2.5; B: /; C: 9; D: 8; E: 9; F: /; G: /

COc1cccc(C(=O)O/N=C(\N)c2ccc([N+](=O)[O-])cc2)c1OC
  A: 12; B: 2419; C: -7; D: 2; E: 3; F: -33; G: 6

COc1cccc(OCc2ccc(Cl)cc2)c1C#N
  A: 7.2; B: 4219; C: 2; D: -4; E: 24; F: -124; G: -8

OCCN1CCN(c2cc(C(F)(F)F)nc3ccccc23)CC1
  A: 2.0; B: 4619; C: 4; D: 10; E: 4; F: -21; G: 2

CN(Cc1ccccc1)c1nc2c(c(=O)[nH]c(=O)n2C)n1C
  A: -2.9; B: 4509; C: /; D: /; E: 6; F: -27; G: 2

Assay outcomes: PubChem, several laboratories
